TRPV1 PAM – enhances activation of the human vanilloid receptor TRPV1; Q8NER1; TRPV1-expressing cells, Fluo-8 calcium influx, capsaicin EC20 potentiation; host cell line not named in the record; control for the full effect not named in the record; potentiation, % at 8.33 µM; hit rate 0.02% among 320,000; AID 540277; active means potentiation above 80%; inconclusive means 30% to 80%; inactive means below 30%; note: 0% is about no effect
Target sequence (Q8NER1 whole entry, looked up): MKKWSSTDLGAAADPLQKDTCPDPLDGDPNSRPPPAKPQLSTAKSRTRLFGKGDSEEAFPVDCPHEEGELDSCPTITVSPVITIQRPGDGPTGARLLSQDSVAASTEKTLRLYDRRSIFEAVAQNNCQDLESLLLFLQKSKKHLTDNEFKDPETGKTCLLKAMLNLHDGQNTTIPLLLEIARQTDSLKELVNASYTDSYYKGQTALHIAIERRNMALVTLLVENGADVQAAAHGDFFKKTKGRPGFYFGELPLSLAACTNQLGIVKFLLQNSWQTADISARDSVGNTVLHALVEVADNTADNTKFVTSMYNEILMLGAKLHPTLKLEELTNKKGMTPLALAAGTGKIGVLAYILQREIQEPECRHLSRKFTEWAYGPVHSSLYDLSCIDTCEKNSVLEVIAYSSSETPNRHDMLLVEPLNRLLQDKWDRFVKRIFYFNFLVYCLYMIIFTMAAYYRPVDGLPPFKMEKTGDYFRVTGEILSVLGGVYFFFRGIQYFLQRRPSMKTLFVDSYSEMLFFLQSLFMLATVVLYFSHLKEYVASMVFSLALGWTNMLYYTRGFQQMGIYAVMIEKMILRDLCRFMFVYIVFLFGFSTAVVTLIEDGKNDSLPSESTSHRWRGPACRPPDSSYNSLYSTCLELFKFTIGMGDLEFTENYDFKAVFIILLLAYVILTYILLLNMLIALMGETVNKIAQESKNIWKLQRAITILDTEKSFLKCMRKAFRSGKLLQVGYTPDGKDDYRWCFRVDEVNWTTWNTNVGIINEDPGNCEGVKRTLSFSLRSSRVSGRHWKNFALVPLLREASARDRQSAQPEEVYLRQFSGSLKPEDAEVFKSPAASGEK
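Cells expressing TRPV1 were dye-loaded with Fluo-8 and read kinetically: 10 s baseline, 3 min after compound (agonist portion), then 2 min after EC20 capsaicin (allosteric enhancer portion). Calcium-bound dye fluorescence at 480/520 nm.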
gsp ag – activates gsp, the McCune-Albright syndrome mutation; AID 624287; gsp mutant cells, cAMP HTRF, 30 min; control for the full effect not named in the record; hit rate 0.13% among 340,000; Potency, µM (titrated, usually from 76.9 µM), without a hit: at the top dose activation (cAMP increase), hits mostly activators; active = well fitted activation curve with a large enough effect; inconclusive = small, poorly fitted or top-dose-only effect, or another doubt; inactive = no such curve, though single readings can be large or run the other way; cell line not stated here;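 note: phosphodiesterase inhibitor Ro 20-1724 added with compounds to block cAMP breakdown; potency is the fitted concentration of half-maximal effect; nearly all actives have a fitted effect of over 60% in size; about a fifth of the inactives were tested at one dose only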
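Cells in DMEM/10% FBS with G418 were pretreated with compounds in DMSO plus […] (300 uM stock) for 30 min at 37C. cAMP was measured by HTRF (cAMP-d2 plus anti-cAMP antibody-K) after 30 min at room temperature.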
Menin-MLL FL inh – inhibitors of human menin-MLL interaction, wild-type MLL peptide; Fluorescence polarization, fluorescein-MLL peptide displacement from menin; FP activity change, % at 61.4 µM; 290,000 tested, under 10 active; inconclusive = falling polarisation curve, or a change in total fluorescence; inactive = total fluorescence flat and polarisation flat or rising; no compound was filed as active; the % refers to the polarisation; negative = inhibition;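 note: % of control where 0% means no effect; inhibitors lower the polarisation; unlabelled MLL peptide was the positive control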
ClpP mod – qHTS Assay for Activators of ClpP. Potency, µM (top dose mostly 57.5 µM), inactives show at the highest dose activity change, negative = active. hit rate 1.9% among 340,000. purified B. subtilis ClpP, FRET peptide cleavage, 20 min. AID 651965, 2013; active = well fitted falling curve with a large enough effect; inconclusive = small, poorly fitted or top-dose-only effect; inactive = no such curve, though single readings can be large or run the other way; note: potency is the fitted concentration of half-maximal effect; the source files actives as falling curves though it sought activators and does not explain the sign; nearly all actives have a fitted effect of over 65% in size; many hits overshoot -100%
Target sequence (P80244 whole entry, looked up): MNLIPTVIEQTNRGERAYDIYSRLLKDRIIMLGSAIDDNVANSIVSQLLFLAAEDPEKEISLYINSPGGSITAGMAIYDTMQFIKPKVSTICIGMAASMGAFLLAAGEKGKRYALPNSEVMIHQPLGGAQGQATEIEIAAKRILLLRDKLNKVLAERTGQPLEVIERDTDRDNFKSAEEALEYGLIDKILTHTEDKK
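Buffer: 100 mM Tris/HCl pH8, 100 mM KCl, 0.05% low protease BSA, 2.5% glycerol, 0.01% Tween-20. ClpP 10 microg/mL final; 20 min RT; delta FRET normalized to ADEP and DMSO controls.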
gsp antagonist – antagonists of gsp mutant (McCune-Albright syndrome). Potency, µM (series often up to 76.9 µM), inactives show at the top dose activity change, negative = inhibition, hits mostly inhibitors. hit rate 0.4% among 340,000. gsp-mutant cells, cAMP HTRF, 30 min; control for the full effect not named in the record; active = falling curve of any shape with a large fitted effect; inconclusive = falling curve, mostly with a smaller effect; inactive = flat or rising curve; cell line not stated here;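 note: intracellular cAMP measured with PDE inhibitor Ro 20-1724 present during compound exposure; potency is the fitted concentration of half-maximal effect; % is set by controls: 0 for no effect and ±100 for the full control effect; nearly all actives have a fitted effect of over 65% in size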
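HTRF cAMP measurement after 30 min RT detection following 30 min, 37C compound treatment alongside […] (added as 300 uM solution) in G418-selected cells seeded at 2000/well and grown 16–24 h.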
TRPML1 blocker – human mucolipin-1 channel inhibition. hit rate 0.02% among 390,000. AID 624415. activity change, negative = inhibition, % (concentration not given with the values). Q9GZU1. TRPML1-inducible cells, Ca2+ dye fluorescence, FDSS; hits give low values; inhibition of EC80 agonist-evoked calcium signal; in the data active means activity change below about -50%; inconclusive means about -30% to -50%; inactive means above about -30%;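 note: stimulus is agonist 54-4 at its EC80 concentration; % is set by controls: 0 for no effect and ±100 for the full control effect; compound concentration not given in the record; the text of the record puts the active cut at -80%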
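TRPML1-DL cells, Tet-induced overnight (~16 h, 37 °C) at 1,500 cells/well, were loaded with Ca8 no-wash dye plus quencher for 45-90 min at room temperature. Compounds were pinned during FDSS kinetic reading; agonist 54-4 at EC80 (4 uM final) then added.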
Sfp PPTase inh – blocks B. subtilis Sfp PPTase activity; Biochemical Sfp PPTase activity, qHTS; Potency, µM, inactives show max response, negative = inhibition, actives largely listed as inhibitors; AID 1490; Q9F4F7; hit rate 3.5% among 310,000; active = well fitted inhibition curve with a large enough effect; inconclusive = small, poorly fitted or top-dose-only effect, or another doubt; inactive = no such curve, though single readings can be large or run the other way;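 note: the enzyme is Sfp with the accession as filed and its product quenches rhodamine fluorescence; potency is the fitted concentration of half-maximal effect; 0% = enzyme reaction without inhibitor and -100% = no enzyme wells; top concentration of the series not given in the record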
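Fluorescence-quenching assay with 15 nM Sfp, 5 uM rhodamine-CoA and 12.5 uM BHQ-2-labelled ybbR peptide in pH 7.6 Hepes/MgCl2 buffer. Enzyme was pre-incubated with compound for 15 min at room temperature. Rate was taken from the 30-min fluorescence change (525/598 nm).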
* hit, by the source's call; [ ] = another dose, or the depositor's remark.

Screening O=C1CC(c2cccc(Cl)c2)CC(O)=C1C=Nc1cccc(Cl)c1 (configuration not stated) returned TRPV1 PAM 1, gsp ag -5%[15.4 µM], Menin-MLL FL inh 13, ClpP mod -4.3%, gsp antagonist -12%, TRPML1 blocker -4 and Sfp PPTase inh -6%.
O=C1c2ccccc2C(=O)N1Cc1nn2c(-c3ccc(Cl)cc3)nnc2s1 was read as TRPV1 PAM -4, gsp ag 14%, Menin-MLL FL inh 8.2, ClpP mod -0.2%, gsp antagonist 12%, TRPML1 blocker -8 and Sfp PPTase inh -22%.
`CC(C)Cc1nc(Cl)c(C#N)c2c1CCCC2` gave TRPV1 PAM 0, gsp ag -20%, Menin-MLL FL inh -2.6, ClpP mod 1.7%, gsp antagonist -8%, TRPML1 blocker 2 and Sfp PPTase inh -2%.
O=C(CN1CCN(S(=O)(=O)c2ccc(F)cc2)CC1)Nc1ccccc1C(=O)NC1CC1 was read as TRPV1 PAM -3, gsp ag 14%[15.4 µM], ClpP mod 0.6%, gsp antagonist -17% and TRPML1 blocker -10.
Screening CCOc1ccc(NC(=O)c2ccc(N3CC4CC(C3)c3cccc(=O)n3C4)c(NC(=O)c3ccncc3)c2)cc1 (configuration not stated) returned TRPV1 PAM -2, gsp ag 1%, Menin-MLL FL inh 0.4, ClpP mod 0.3%, gsp antagonist -6%, TRPML1 blocker 31 and Sfp PPTase inh 11%.
O=C(NCc1ccco1)C1CC(c2cccc([N+](=O)[O-])c2)=NO1 (configuration not stated) was read as TRPV1 PAM 5, gsp ag 25%, Menin-MLL FL inh 2.9, ClpP mod -4.5%, gsp antagonist 0%, TRPML1 blocker 38 and Sfp PPTase inh 6%.
Screening CN(C)CCCNC(=S)N(CCCN(C)C)Cc1cc2cc3c(cc2[nH]c1=O)OCO3 returned TRPV1 PAM -1, gsp ag 2%, Menin-MLL FL inh -0.1, ClpP mod 4.8%, gsp antagonist 7%, TRPML1 blocker -11 and Sfp PPTase inh -1%.
`COc1ccc(C(C)=O)cc1COC(=O)c1c(C)nn(-c2ccccc2)c1C` gave TRPV1 PAM 25, gsp ag inconclusive, Menin-MLL FL inh 1.2, ClpP mod -0.6%, gsp antagonist -14%, TRPML1 blocker 29 and Sfp PPTase inh -10%.
For O=C(Nc1ccccc1)NC1CCS(=O)(=O)C1 (configuration not stated) the results were TRPV1 PAM -7, gsp ag -3%, Menin-MLL FL inh 6.1, ClpP mod -8.6%, gsp antagonist -3%, TRPML1 blocker 13 and Sfp PPTase inh 12%.
`CCc1nnc(SCC(=O)Nc2ccc(N3CCOCC3)cc2)n1C` gave TRPV1 PAM 5, gsp ag 10%[15.4 µM], gsp antagonist -4%, TRPML1 blocker -10 and Sfp PPTase inh 22%.
For CNC(=O)c1nc(C)n(-c2ccc(Cl)cc2Cl)n1 the results were TRPV1 PAM -2, gsp ag 15%[15.4 µM], Menin-MLL FL inh 1.3, gsp antagonist 17%, TRPML1 blocker -11 and Sfp PPTase inh 13%.
CC1(C)CC2(CCO1)N1CC3(C)CN2CC(C)(C1)C3O (configuration not stated) was read as TRPV1 PAM -6, gsp ag 0%, Menin-MLL FL inh 0.8, ClpP mod -1.5%, gsp antagonist -7%, TRPML1 blocker -4 and Sfp PPTase inh 17%.
For CCCCN(C)/C=N/c1c(C#N)cnn1-c1ccc(C)cc1 the results were TRPV1 PAM 8, gsp ag inconclusive, Menin-MLL FL inh -1.3, ClpP mod 0.5%, gsp antagonist -24%, TRPML1 blocker -5 and Sfp PPTase inh 4%.
`CC(=O)Nc1ccc(NCN2C(=O)[C@@H]3[C@H]4CC[C@H](C4)[C@@H]3C2=O)cc1` gave TRPV1 PAM 7, gsp ag inconclusive, Menin-MLL FL inh 2.4, ClpP mod -1.6%, gsp antagonist 9%, TRPML1 blocker -4 and Sfp PPTase inh 2%.
`Cc1ccc(C)c(OCCC(=O)OCC(=O)N2CCN(S(=O)(=O)c3ccc(Cl)cc3)CC2)c1` gave TRPV1 PAM 5, gsp ag -7%, ClpP mod -4.2%, gsp antagonist 7% and TRPML1 blocker -8.
Screening CC(C)c1ccc(NC2=NCC(=O)N2Cc2cccs2)cc1 returned TRPV1 PAM -5, gsp ag 19%, Menin-MLL FL inh -3.4, gsp antagonist -14%, TRPML1 blocker -5 and Sfp PPTase inh 6%.
`COC(=O)C1=C(C)N(C)C(=S)NC1c1ccc(Cl)cc1` (configuration not stated) gave TRPV1 PAM 13, gsp ag 3%[15.4 µM], Menin-MLL FL inh 5.9, gsp antagonist -4%, TRPML1 blocker 3 and Sfp PPTase inh 10%.
CCc1noc(C)c1C(=O)N(CC)CC(=O)NCc1ccc(Cl)cc1 was read as TRPV1 PAM -6, gsp ag 8%, ClpP mod -2.9%, gsp antagonist -7% and TRPML1 blocker -13.
O=C(NCCCN1CCOCC1)C(=O)N/N=C/c1ccc2c(c1)OCO2 was read as TRPV1 PAM 9, gsp ag -4%[15.4 µM], Menin-MLL FL inh 0.0, gsp antagonist 1%, TRPML1 blocker 12 and Sfp PPTase inh 15%.
`CCOc1ccc(CCNC(=O)CCCn2nc(C)c3c(C)n(-c4ccccc4)nc3c2=O)cc1` gave TRPV1 PAM 10, gsp ag -10%, ClpP mod 2.2%, gsp antagonist -17%, TRPML1 blocker 13 and Sfp PPTase inh 6%.
Screening COc1ccc(C(C(=O)NCC2CCCO2)N(C(=O)Cn2nnc3ccccc32)c2ccc(NC(C)=O)cc2)cc1OC (configuration not stated) returned TRPV1 PAM 12, gsp ag 1%, Menin-MLL FL inh -4.3, gsp antagonist 5%, TRPML1 blocker 3 and Sfp PPTase inh 15%.
For O=C(CC1SC(N2CCCC2)=NC1=O)Nc1ccc(C(=O)NCc2ccc(F)cc2)cc1 (configuration not stated) the results were TRPV1 PAM 5, gsp ag 12%[15.4 µM], gsp antagonist 2% and TRPML1 blocker 17.
COc1ccc(-c2nnn(CC(=O)NCc3ccccc3)n2)cc1OC was read as TRPV1 PAM 15, gsp ag -17%, Menin-MLL FL inh 5.9, ClpP mod -2.2%, gsp antagonist 4%, TRPML1 blocker 8 and Sfp PPTase inh -11%.
`O=C(O)CCNS(=O)(=O)c1ccc2c(c1)CCCC2` gave TRPV1 PAM 8, gsp ag -19%, Menin-MLL FL inh 0.2, gsp antagonist 8%, TRPML1 blocker -9 and Sfp PPTase inh 10%.
CCN(CC(=O)Nc1cc(Cl)ccc1C)C(=O)c1ccc2c(=O)n3c(nc2c1)CCC3 was read as TRPV1 PAM 12, gsp ag 6%, ClpP mod -7.4%, gsp antagonist 3% and TRPML1 blocker -9.
Screening CC(C)CC1NC(=O)N(CC(=O)Nc2cc(S(=O)(=O)N3CCOCC3)ccc2Cl)C1=O (configuration not stated) returned gsp ag -29%, ClpP mod 0.7%, gsp antagonist 4% and TRPML1 blocker -1.
Cn1cnnc1SCC(=O)Nc1ccc(OC(F)F)cc1 was read as TRPV1 PAM inconclusive, gsp ag 2%, Menin-MLL FL inh -1.5, ClpP mod 1.1%, gsp antagonist 12%, TRPML1 blocker -4 and Sfp PPTase inh 2%.
`COc1ccc(CNC(=O)CN2C(=O)NC(C)(c3ccc(Cl)cc3)C2=O)cc1` (configuration not stated) gave TRPV1 PAM 6, gsp ag 4%, Menin-MLL FL inh 3.0, gsp antagonist 0%, TRPML1 blocker 3 and Sfp PPTase inh 14%.
For CCn1c(C(=O)N2CCc3ccccc3C2)cc2oc3ccccc3c21 the results were TRPV1 PAM -18, gsp ag -35%[inhibitor], Menin-MLL FL inh -1.1, ClpP mod -17%, gsp antagonist -2%, TRPML1 blocker 52 and Sfp PPTase inh inconclusive.
CSc1sc(C(=O)OC(C)C)c2c1C(=O)CC(C)(C)C2 was read as TRPV1 PAM 0, gsp ag 0%, Menin-MLL FL inh 3.5, gsp antagonist -4%, TRPML1 blocker 29 and Sfp PPTase inh 16%.
`COc1ccccc1C(OC(=O)c1ccco1)C(=O)NCc1ccc(F)cc1` (configuration not stated) gave TRPV1 PAM -4, gsp ag 9%[15.4 µM], Menin-MLL FL inh 0.9, ClpP mod 0.6%, gsp antagonist -6%, TRPML1 blocker 5 and Sfp PPTase inh 5%.
Screening COc1ccc(NC(=O)CN(C)C(=O)C(Sc2ccccc2)c2ccccc2)cc1 (configuration not stated) returned TRPV1 PAM -8, gsp ag 6%, ClpP mod -1.5%, gsp antagonist inconclusive and TRPML1 blocker -7.
`O=C1CC(c2ccco2)CC(O)=C1C=Nc1ccc(Br)cc1` (configuration not stated) gave TRPV1 PAM 9, gsp ag 0%, Menin-MLL FL inh 1.0, ClpP mod -23%, gsp antagonist -16%, TRPML1 blocker -12 and Sfp PPTase inh 56µM*.
Screening O=C(O)CCCNC(=O)c1ccc(NC(=O)Cc2ccc(Cl)cc2)cc1 returned TRPV1 PAM 25, gsp ag -23%, Menin-MLL FL inh -3.9, gsp antagonist 0%, TRPML1 blocker 4 and Sfp PPTase inh -27%.
O=C(Nc1cc2c(oc1=O)CCCC2=O)c1ccccc1 was read as TRPV1 PAM 11, gsp ag 12%, Menin-MLL FL inh 0.8, ClpP mod -0.6%, gsp antagonist 10%, TRPML1 blocker 0 and Sfp PPTase inh -1%.
For CC(=O)CSc1nc2ccccc2s1 the results were TRPV1 PAM 1, gsp ag 26%, Menin-MLL FL inh 0.4, ClpP mod -0.3%, gsp antagonist -7%, TRPML1 blocker 6 and Sfp PPTase inh 8%.
Cc1ccc(NC(=O)Cc2ccc3c(c2)OCCO3)cc1S(=O)(=O)N1CCCCC1 was read as TRPV1 PAM -9, gsp ag 15%[15.4 µM], Menin-MLL FL inh 2.3, gsp antagonist -11%, TRPML1 blocker -12 and Sfp PPTase inh 4%.
`NC(=O)CC(NC(=O)c1ccccc1)c1ccc(NCCc2ccc(Cl)cc2)c([N+](=O)[O-])c1` (configuration not stated) gave TRPV1 PAM 8, Menin-MLL FL inh 2.7, ClpP mod -2.6%, gsp antagonist -14%, TRPML1 blocker 7 and Sfp PPTase inh -27%.
COC(=O)CNC(c1ccccc1)c1cc(Br)ccc1N (configuration not stated) was read as TRPV1 PAM 0, gsp ag inconclusive, Menin-MLL FL inh 2.3, gsp antagonist 7%, TRPML1 blocker -1 and Sfp PPTase inh 5%.

Screens: PubChem, National Center for Advancing Translational Sciences (NCATS)
